Screens (PubChem)
Vaccinia mCherry = inhibitors of vaccinia virus infection (mCherry reporter signal). AID 720579. Vaccinia virus mCherry reporter infection, fluorescence; about a quarter of the inactives have no number. Potency, µM (highest dose often 36.5 µM), for the others: at the highest dose activity change, negative = inhibition, usual class: inhibitors. hit rate 0.63% among 310,000; active = well fitted inhibition curve with a large enough effect; inconclusive = small, poorly fitted or top-dose-only effect; inactive = no such curve, though single readings can be large or run the other way; tested in A549 cells; also: nearly all actives have a fitted effect of over 35% in size; inactives centre near -10
VACV Venus inh = inhibitors of vaccinia virus (Venus reporter). Vaccinia virus Venus reporter expression, fluorescence. Potency, µM (doses to about 36.5 µM), without a hit: top-dose activity change, negative = inhibition, hits mostly inhibitors. hit rate 0.46% among 330,000; active means well fitted inhibition curve with a large enough effect; inconclusive means small, poorly fitted or top-dose-only effect; inactive means no such curve, though single readings can be large or run the other way; tested in A549 cells; also: nearly all actives have a fitted effect of over 30% in size; inactives centre near -10
Starred values were filed as active, the others as inactive; [ ] = remark or other dose. % is scaled to controls: 0 for no effect and ±100 for the full control effect; potency is read from the fitted curve at half-maximal effect.

`CC(=O)Nc1cccc(-c2cc(NC(C)=O)c3ncc(-c4cccc(C(C)=O)c4)n3c2)c1` gave Vaccinia mCherry 8.2% and VACV Venus inh 0.1%.
`CCC(=O)NC1(Cc2ccc(O)cc2)CCCCC1` gave Vaccinia mCherry -5.1% and VACV Venus inh -8.1%.
For CCOc1cc(C(=O)Nn2cnnc2)cc(OCC)c1OCC the results were Vaccinia mCherry -5.3% and VACV Venus inh -5.1%.
`COc1cc2c(C(F)(F)F)c(-c3ccc(C#N)cc3)oc(=O)c2cc1OC` gave Vaccinia mCherry inactive and VACV Venus inh -4.3%.
`Cc1cccc(N2C(=N)SCC2=O)c1C` gave Vaccinia mCherry -12.6% and VACV Venus inh -3.0%.
`COc1ccc(Cn2ccnc2)cc1[N+](=O)[O-]` gave Vaccinia mCherry -3.3% and VACV Venus inh 0.4%.
`Cc1ccc(NC(=O)C(CC(C)C)NS(=O)(=O)c2ccc3c(c2)oc(=O)n3C)c(C)c1` (stereo not drawn) gave Vaccinia mCherry -11.1% and VACV Venus inh -10.0%.
`Cc1cccc(C(=O)NCC(c2cccs2)N2CCOCC2)c1` (stereo not drawn) gave Vaccinia mCherry -9.6% and VACV Venus inh -17.6%.
Screening Cc1ccc(C(=O)Nc2ccc3ccccc3c2)cc1 returned Vaccinia mCherry inactive and VACV Venus inh -10.3%.
O=S(=O)(/N=C(\Nc1ccc(F)cc1)C(F)(F)F)c1ccccc1 was read as Vaccinia mCherry -18.5% and VACV Venus inh -15.8%.
`CCC/C(O)=C1\C(=O)CC(c2ccccc2)CC1=NCCc1c(C)[nH]c2ccccc12` (stereo not drawn) gave Vaccinia mCherry -11.8% and VACV Venus inh inconclusive.
`COc1ccc2sc(-c3ccc(S(C)(=O)=O)cc3)c(C#CCO)c2c1` gave Vaccinia mCherry 10µM* and VACV Venus inh inconclusive.
`COc1ccc(OCC(=O)N2CCN(C(=O)c3cccc(OC)c3)CC2)cc1` gave Vaccinia mCherry -11.5% and VACV Venus inh -2.9%.
Cc1cc(=O)[nH]c(SCc2cccc(Br)c2)n1 was read as VACV Venus inh -22.8%.
For CC(C)(C)OC(=O)c1c(N)n(CCCN2CCCC2=O)c2nc3ccccc3nc12 the results were Vaccinia mCherry inconclusive and VACV Venus inh -24.8%.
For COc1ccc(-c2csc(NCCc3nc4cc(Cl)c(Cl)cc4n3CCCO)n2)cc1 the results were Vaccinia mCherry inconclusive and VACV Venus inh inconclusive.
Cc1cc(NC(=O)Cn2cnc3sc(C)c(C)c3c2=O)no1 was read as Vaccinia mCherry -14.6% and VACV Venus inh -15.7%.
For Cc1sc2nc(SCC(=O)NCc3ccco3)n(Cc3ccccc3)c(=O)c2c1C the results were VACV Venus inh -26.0%.
`COc1ccc(CCC(=O)Nc2sc(C(=O)N(C)C)c(C)c2C#N)cc1` gave Vaccinia mCherry -9.2% and VACV Venus inh -16.7%.
`COc1ccccc1COC(=O)c1cccc(S(=O)(=O)N2CCCC2)c1` gave Vaccinia mCherry -6.3% and VACV Venus inh -11.7%.
For O=C(Nc1nnc(SCC(=O)N2CCCc3ccccc32)s1)c1ccccc1 the results were Vaccinia mCherry -11.2% and VACV Venus inh -1.4%.
`COC(=O)[C@H]1C[C@@H]1[C@H](NC(=O)c1cnccn1)c1ccccc1` gave Vaccinia mCherry inactive and VACV Venus inh -7.1%.
Screening CCN(CC)C(=O)/C(=C/c1cn(S(=O)(=O)N(C)C)c2ccccc12)NC(=O)c1ccc(OC)cc1 returned Vaccinia mCherry inconclusive and VACV Venus inh inconclusive.
Screening Cc1ccccc1C(=O)NC(=S)NCC1CCCO1 (stereo not drawn) returned VACV Venus inh 15.0%.
Screening c1ccc(-n2nnnc2Oc2ccc(-c3nnco3)cc2)cc1 returned Vaccinia mCherry -9.4% and VACV Venus inh -7.5%.
For COc1ccccc1OCCC(=O)OCC(=O)Nc1ncc(Cl)cc1Cl the results were VACV Venus inh -15.7%.
`CCOc1ccc(CCNC(=O)COC(=O)/C=C/c2ccccc2)cc1OCC` gave Vaccinia mCherry -4.2% and VACV Venus inh -2.6%.
`O=S(=O)(NCCOCC(F)(F)F)c1ccc2oc3ccccc3c2c1` gave Vaccinia mCherry inconclusive and VACV Venus inh -20.6%.
`CCCCN1C(=O)C(CC(=O)NCc2ccco2)CC(C(=O)N2CCOCC2)=C1C` (stereo not drawn) gave Vaccinia mCherry inactive and VACV Venus inh -13.0%.
`C=CCn1c(COc2ccc(F)cc2)nnc1SCC(=O)c1c[nH]c2c(CC)cccc12` gave Vaccinia mCherry -1.7% and VACV Venus inh -16.9%.
For CCCC(=O)NC(NC1CCS(=O)(=O)C1)C(Cl)(Cl)Cl (stereo not drawn) the results were Vaccinia mCherry 8.2% and VACV Venus inh -3.2%.
Screening Cc1ccc(S(=O)(=O)C(CNC(=O)C(=O)NCc2ccc(Cl)cc2)c2ccco2)cc1 (stereo not drawn) returned Vaccinia mCherry -11.7% and VACV Venus inh -10.6%.
`Cc1ccc(S(=O)(=O)N(C)C)cc1NC(=O)COc1ccccc1C(=O)Nc1ccccc1` gave Vaccinia mCherry -18.0% and VACV Venus inh inconclusive.
`O=S(=O)(c1ccccc1)N1CCC(c2ccccc2)CC1` gave Vaccinia mCherry inactive and VACV Venus inh -12.4%.
For Cc1csc(OCC(=O)Nc2ccc(C)c(C)c2)n1 the results were VACV Venus inh -10.9%.
`COc1ccc(-c2nnc3c4ccccc4c(-c4ccccc4)nn23)cc1` gave Vaccinia mCherry -3.2% and VACV Venus inh -7.9%.
`O=C(Nc1ccc(C(=O)N2CCN(c3ccccc3)CC2)cc1)c1nsc2ccccc12` gave Vaccinia mCherry -10.7%[7.34 µM] and VACV Venus inh -6.0%[7.34 µM].
CCc1ccc(/C=N/NC(=O)C(=O)NCCCN2CCOCC2)cc1 was read as Vaccinia mCherry -16.7% and VACV Venus inh -13.6%.
CCc1nn(C(C)C(=O)NC(C)CCc2ccco2)c(=O)c2cc3occc3n12 (stereo not drawn) was read as VACV Venus inh -14.6%.
Screening O=[N+]([O-])c1ccc(/C=N/Nc2nc(N3CCCCCC3)nc(N3CCCCCC3)n2)o1 returned Vaccinia mCherry inconclusive and VACV Venus inh -25.5%.
For O=C1N(CC(=O)N2CCc3ccccc32)CCN1Cc1ccccc1Cl the results were VACV Venus inh inconclusive.
Cc1ccc(NC(=O)CN2CCN(S(=O)(=O)c3cccs3)CC2)cc1S(=O)(=O)N(C)C was read as Vaccinia mCherry -20.2% and VACV Venus inh -13.5%.
For Cc1nc2ncnn2c(C)c1CCC(=O)N1CCN(c2ccc(F)cc2)CC1 the results were Vaccinia mCherry -0.4% and VACV Venus inh -0.9%.
CN(C(=O)c1ccccc1)c1ccc(OCC(=O)NC2CCS(=O)(=O)C2)cc1 (stereo not drawn) was read as Vaccinia mCherry -14.5% and VACV Venus inh -15.9%.
Cc1ccn2c(C(C)O)nnc2c1 (stereo not drawn) was read as Vaccinia mCherry -13.2% and VACV Venus inh -2.3%.
For Cc1ccc(NC(=O)C2CC(=O)N/C(=N/N=C/c3ccco3)S2)cc1C (stereo not drawn) the results were Vaccinia mCherry -11.9% and VACV Venus inh -7.4%.
`CSc1ccccc1C(=O)N(C)C(c1ccccc1)c1ccccc1` gave Vaccinia mCherry -24.5% and VACV Venus inh 8.7%.
For CCN(CC)CC(=O)N1N=C(c2cccs2)CC1c1ccco1 (stereo not drawn) the results were VACV Venus inh -1.5%.
`CSc1nnc(C)c(/C=C/Nc2ccc(F)cc2)n1` gave VACV Venus inh -25.0%.
For CCC(C)N(C(=O)COc1ccc(NC(C)=O)cc1)C1CCS(=O)(=O)C1 (stereo not drawn) the results were Vaccinia mCherry inactive and VACV Venus inh -6.2%.
For CCCCn1c(SCC(=O)c2ccccc2)nc2c1c(=O)[nH]c(=O)n2C the results were VACV Venus inh inconclusive.
For Clc1ccc(-c2[nH]ncc2N=Nc2ccccc2)cc1 the results were Vaccinia mCherry -15.6% and VACV Venus inh -13.9%.
CN1CCN(C(CNC(=O)c2ccc(Br)o2)c2ccc(F)cc2)CC1 (stereo not drawn) was read as Vaccinia mCherry inactive and VACV Venus inh -18.5%.
For COc1ccc(S(=O)(=O)Nc2ccccn2)c(C)c1C the results were Vaccinia mCherry -21.5% and VACV Venus inh -16.6%.
`COc1ccc(C(=O)OCC(=O)NC2CC2)cc1` gave Vaccinia mCherry -0.5% and VACV Venus inh -10.1%.
O=C(Nc1nc(-c2ccccc2)cs1)C1COc2ccccc2O1 (stereo not drawn) was read as VACV Venus inh -16.6%.
Screening CCOC(=O)c1c(/N=C/c2cccc(C)c2O)sc2c1CCN(C)C2 returned Vaccinia mCherry inactive and VACV Venus inh -2.3%.
For COc1cc(C(=S)N2CCCCC2)ccc1OCC(=O)Nc1ccccc1Cl the results were Vaccinia mCherry inactive and VACV Venus inh -29.1%.
CNC(=O)COc1coc(CN2CCN(c3ccc(F)cc3)CC2)cc1=O was read as Vaccinia mCherry -10.0%[7.34 µM] and VACV Venus inh -0.2%[7.34 µM].
For Cc1nc(C)n(CC(O)COc2ccc(C(=O)c3ccccc3)cc2)n1 (stereo not drawn) the results were Vaccinia mCherry -23.4% and VACV Venus inh -25.7%.

The closing 6 compounds of the section before come first, to join the parts.
`COc1ccc(C(=O)OCC(=O)NC2CC2)cc1` gave Vaccinia mCherry -0.5% and VACV Venus inh -10.1%.
O=C(Nc1nc(-c2ccccc2)cs1)C1COc2ccccc2O1 (stereo not drawn) was read as VACV Venus inh -16.6%.
Screening CCOC(=O)c1c(/N=C/c2cccc(C)c2O)sc2c1CCN(C)C2 returned Vaccinia mCherry inactive and VACV Venus inh -2.3%.
For COc1cc(C(=S)N2CCCCC2)ccc1OCC(=O)Nc1ccccc1Cl the results were Vaccinia mCherry inactive and VACV Venus inh -29.1%.
CNC(=O)COc1coc(CN2CCN(c3ccc(F)cc3)CC2)cc1=O was read as Vaccinia mCherry -10.0%[7.34 µM] and VACV Venus inh -0.2%[7.34 µM].
For Cc1nc(C)n(CC(O)COc2ccc(C(=O)c3ccccc3)cc2)n1 (stereo not drawn) the results were Vaccinia mCherry -23.4% and VACV Venus inh -25.7%.
`COc1ccc(N2CSC3=C(C#N)C(c4cccc(OC)c4OC)CC(=O)N3C2)cc1` (stereo not drawn) gave Vaccinia mCherry inactive and VACV Venus inh -0.3%.
`CCOc1ccc2nc(NS(=O)(=O)c3ccc(NC(C)=O)cc3)sc2c1` gave Vaccinia mCherry inactive and VACV Venus inh -12.1%.
CCC(CC)NC(=O)c1nn(Cc2ccccc2)c(=O)c2ccccc12 was read as Vaccinia mCherry -9.8% and VACV Venus inh -5.0%.
Screening CCC(c1nc2ccccc2c(=O)n1-c1cccnc1)N1C(=O)c2ccccc2C1=O (stereo not drawn) returned Vaccinia mCherry -10.8% and VACV Venus inh -4.3%.
Screening COC(=O)c1c(NC(=O)COC(=O)c2ccc(C)s2)sc2c1CCCCC2 returned Vaccinia mCherry -7.2% and VACV Venus inh -14.7%.
`COc1ccc(-c2ccc(-c3cc(=O)oc4cc(OC)c(OC)c(OC)c34)cc2)cc1OC` gave Vaccinia mCherry inactive and VACV Venus inh inconclusive.
Screening O=S(=O)(c1ccc2c(c1)CCCN2)N1CCCC2CCCCC21 (stereo not drawn) returned Vaccinia mCherry -11.6% and VACV Venus inh -13.6%.
`COc1cc(-c2nnc(COC(=O)c3ccc([N+](=O)[O-])o3)o2)cc(OC)c1OC` gave Vaccinia mCherry inconclusive and VACV Venus inh -15.4%.
For CCCCNc1c(-c2ccc(OC)c(SC3CCCCC3)c2)nc2ccc(C)cn12 the results were Vaccinia mCherry 10µM* and VACV Venus inh 11.2µM*.
For CC1(C)CC(=O)c2cnc(NCc3ccco3)nc2C1 the results were VACV Venus inh -14.0%.
For CCN1CCN(c2ccc(S(=O)(=O)N3CCOCC3)cc2NC(=O)CCOc2ccccc2)CC1 the results were Vaccinia mCherry inactive and VACV Venus inh -5.0%.
Screening O=C(NCC(c1cccnc1)N1CCN(c2ccccc2)CC1)c1ccc2c(c1)OCO2 (stereo not drawn) returned VACV Venus inh -4.1%.
For Cc1cc(O)cc2c1O[C@@](C)(CCC[C@@H](C)CCC[C@@H](C)CCCC(C)C)CC2 the results were Vaccinia mCherry inactive and VACV Venus inh -14.1%.
`CCc1cccc2cc3c(N)c(C(=O)Nc4ccc(S(=O)(=O)N5CCCC5)cc4)sc3nc12` gave Vaccinia mCherry -24.5% and VACV Venus inh -7.4%.
O=C1CCSC2(C(=O)N(Cc3ccccc3)c3ccccc32)N1c1ccccc1 (stereo not drawn) was read as Vaccinia mCherry -22.0% and VACV Venus inh -15.7%.
O=C(Nc1cccc(Cl)c1Cl)c1ccc2c(c1)N(Cc1cccc(Cl)c1)C(=O)c1ccccc1S2=O (stereo not drawn) was read as Vaccinia mCherry -5.0% and VACV Venus inh -2.1%.
`O=C(COc1ccccc1)NCCSCc1ccco1` gave Vaccinia mCherry -10.1% and VACV Venus inh -2.3%.
For COC(=O)C1=C(c2ccc(F)cc2F)C[C@@H]2CC[C@H]1N2C(=O)N1CCOCC1 the results were Vaccinia mCherry inactive and VACV Venus inh -8.0%.
Screening CCOc1ccc(CCNC(=O)CN2C(=O)CCSc3ccccc32)cc1 returned Vaccinia mCherry inactive and VACV Venus inh -18.9%.
Screening COc1ccc(OC)c(C2=CC(=O)C[C@H](c3ccc4c(c3)OCO4)C2)c1 returned Vaccinia mCherry inconclusive and VACV Venus inh -26.3%.
Screening COc1ccccc1N(CC(=O)NCCSc1ccccn1)S(=O)(=O)c1ccccc1 returned Vaccinia mCherry -7.0% and VACV Venus inh -3.8%.
Screening COc1ccccc1C1=CC(=O)C[C@H](c2ccc(Cl)cc2)C1 returned Vaccinia mCherry inconclusive and VACV Venus inh inconclusive.
